# Bfl-1 A1 inh: caspase 3/7 activation in MEF A1-2A-BIM cells, primary screen, A1 inhibitor project, cell-based, luminescence, HTS | caspase activation, % (no concentration beside the values) | AID 2462, 2010 | 0.066% of 330,000 active | Caspase-Glo 3/7 luminescence, 3 h; percent of clofoctol response, vehicle zero;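 active = over half of replicate activation scores above 10%, or exactly half above 10 with the replicate mean above 10; inconclusive = replicate mean below 10 yet half the replicates above 10; inactive = over half of replicates below 10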;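 also: wells of about 30 µL received 50 nL stock; many hits fall short of the cut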
# AF4-AF9 inh: inhibitors of AF4 peptide binding to AF9, primary screen, biochemical, AlphaScreen, biotin-AF4 peptide, FLAG-AF9, single point | 0.47% of 350,000 active | inhibition, % at 10 µM | Protein AF-9 (Homo sapiens), P42568;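 active = every replicate reaching a set inhibition limit, whatever the replicate mean, cut at about 25% in these data; inconclusive = mean inhibition reaches that limit but some replicates miss it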;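 also: 0% = plate neutral control median and 100% = total signal loss; the record names both 10 and 1 µM as test concentration; the first replicate is given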
# Target sequence (P42568 whole entry, looked up): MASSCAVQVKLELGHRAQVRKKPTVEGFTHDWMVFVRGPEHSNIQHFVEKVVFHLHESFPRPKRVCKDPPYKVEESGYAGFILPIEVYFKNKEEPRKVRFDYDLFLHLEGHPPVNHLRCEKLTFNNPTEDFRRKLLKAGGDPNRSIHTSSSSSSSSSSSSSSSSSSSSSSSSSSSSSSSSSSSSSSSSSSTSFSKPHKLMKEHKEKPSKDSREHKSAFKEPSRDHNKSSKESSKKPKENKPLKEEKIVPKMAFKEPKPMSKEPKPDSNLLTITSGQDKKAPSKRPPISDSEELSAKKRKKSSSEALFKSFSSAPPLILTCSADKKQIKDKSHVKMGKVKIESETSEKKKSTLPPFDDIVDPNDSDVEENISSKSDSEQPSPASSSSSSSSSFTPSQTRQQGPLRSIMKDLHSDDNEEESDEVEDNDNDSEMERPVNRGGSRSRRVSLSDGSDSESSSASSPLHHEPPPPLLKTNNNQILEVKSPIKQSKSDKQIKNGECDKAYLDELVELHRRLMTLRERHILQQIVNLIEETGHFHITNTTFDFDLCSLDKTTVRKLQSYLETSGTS
# Ecoli rRNA inh: reduced GFP signal of wild-type E. coli, primary screen, bacterial rRNA inhibitor project, GFP/RFP fluorescence, OD600, single point; 1.6% of 350,000 active; GFP signal change (wild-type ribosome), % (test concentration not listed); E. coli WT GFP vs humanized-ribosome RFP mutants, 24 h; stronger effect = lower value; DMSO median 0, no signal -100; AID 720706, 2013;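 active = significant combined selectivity score with lowered wild-type GFP, culture density cut under 30%, mutant RFP and density less affected; inactive = any of these conditions unmet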; also: one replicate is shown; some compounds called inactive have numbers as strong as hits
# RanGTP-Impb inh: inhibitors of RanGTP-importin-beta interaction, primary screen, biochemical, FRET, CFP-Ran, YFP-importin-beta, homogeneous. inhibition, % (no concentration beside the values). cell-free CFP-Ran/YFP-importin-beta FRET ratio. AID 2216, 2009. Ran GTPase (GTP-bound) - importin-beta complex. 1.1% of 300,000 active;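 active = most replicates above 15%; inconclusive = exactly half above 15%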;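 also: 0% = DMSO wells and 100% = Ran loaded with GDP instead of GTP; wells of about 40 µL received 100 nL stock; the first replicate is given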
# T cruzi repl: inhibitors of intracellular T. cruzi growth, primary screen, luminescence, NIH3T3 host cells; inhibition, % (concentration not given with the values); T. cruzi beta-gal in NIH3T3, 90 h; 1.4% of 300,000 active;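 active = mean inhibition across valid replicates above about 55%, limit read from the data; inconclusive = mean below that limit but half or more replicates reach it; inactive = mean below it, under half of replicates reach it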;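 also: signal also drops with host cell toxicity which is not excluded here; 0% = plate median of DMSO wells and 100% = zero luminescence signal; higher percent means less beta-gal luminescence so fewer parasites; stock transfer was 50 nL into about 50 µL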
# Calb FLC: C. albicans growth inhibition with fluconazole, primary screen, CaCi-2 strain, Alamar Blue fluorescence. C. albicans CaCi-2 (fluconazole-resistant clinical isolate) + fluconazole, 48 h. growth inhibition, % (no concentration beside the values). 0.57% of 300,000 active. AID 1979, 2009;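 active = most replicates above 75%; inconclusive = exactly half above 75%; inactive = most below 75%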;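 also: all wells also contain fluconazole at 8 µg/ml as a sub-toxic cotreatment; 0% = median of DMSO wells and 100% = median of geldanamycin control wells; wells of about 8 µL received 7.5 nL stock; the first replicate is given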
# Beta apoptosis: inhibitors of cytokine-induced beta cell apoptosis, primary screen, luminescence; INS-1E cytokine-induced death, ATP luminescence, 48 h; percent of positive-control rescue, neutral wells zero; protection from apoptosis, % (concentration not given with the values); 0.8% of 300,000 active; AID 435005, 2010;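 active = all replicates at 75% or more, or half of them and the mean; inconclusive = half reach 75% but not the mean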;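 also: 0% = cytokine-treated negative control wells and 100% = positive control rescue; higher means more ATP so stronger rescue from cytokine killing; wells of about 40 µL received 100 nL stock; the first replicate is given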
# Vif TR-FRET: inhibitors of Vif binding to APOBEC3G peptide, primary screen, biochemical, TR-FRET, GST-Vif 1-94, biotin-A3G peptide, dose response retest (AID 1117319). 0.57% of 260,000 active. one-dose inhibition, %; IC50 in µM for titrated hits. TR-FRET GST-Vif / biotin-A3G peptide binding; higher % means a stronger effect; test concentration not given here; strong numbers were not always called active. Virion infectivity factor (Human immunodeficiency virus type 1 group M subtype B (isolate …;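 active = above the screen mean plus three standard deviations and confirmed in dose response; inconclusive = results disagree or hit not tested in dose response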;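 also: Vif residues 1-94 fused to GST binding biotinylated APOBEC3G peptide 110-148; 0% = full assay without inhibitor and 100% = GST in place of GST-Vif; retest series ran down from 100 µM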
# Ecoli rRNA inh OD600: recorded beside Ecoli rRNA inh, whose call it bears; OD600 change, %; measured here: OD600 growth;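 optical density of the mix in the first replicate; 0 = DMSO median and -100 = no signal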
# Ecoli rRNA inh RFP: further read-out of Ecoli rRNA inh, marked with its call; RFP signal change, %; measured here: RFP humanized mutant strains;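 first replicate; 0 = DMSO median and -100 = no signal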
# * hit, by the source's call; ? = inconclusive; nt = no result given. Only part of the results is shown (hit frequency here may not be typical).
SMILES,Bfl-1 A1 inh,AF4-AF9 inh,Ecoli rRNA inh,Ecoli rRNA inh OD600,Ecoli rRNA inh RFP,RanGTP-Impb inh,T cruzi repl,Calb FLC,Beta apoptosis,Vif TR-FRET
Cc1cc(CNC(=O)C2CCC(=O)N(CCc3ccc(Cl)cc3)C2)no1 (centres undefined),-1.1,-1.4,7,8,1.3,-0.2,5,-2,0,-5%
COc1ccc(C/C(=N\OC(C)=O)c2ccc(OC)cc2)cc1,-1.3,nt,nt,nt,nt,7.5,3,-6,-7,-9%
COc1cc(NC(=O)COC(=O)CCc2nc3ccccc3c(=O)[nH]2)cc(OC)c1,2.0,-4.3,13,11,6.0,nt,nt,nt,-3,-18%
Cc1cc(C)c(OCCOCCN2CCNCC2)c(C)c1,-0.5,nt,nt,nt,nt,5.4,28,nt,-4,-6%
CCn1c(SCC(=O)NC2CCCC2)nnc1C(C)C,-0.3,0.5,5,7,1.3,-0.3,-6,-1,-1,nt
COc1cc(OC)cc(C(=O)NCC(=O)NCCN2C(=O)S/C(=C\c3ccccc3Cl)C2=O)c1,-0.2,2.5,-20,-32,-1.7,nt,nt,nt,-5,-17%
COc1ccc(NC(=O)c2cc(C)cc(C)c2)cc1S(=O)(=O)N1CCCCC1,0.4,-6.7,-4,-27,2.9,nt,nt,nt,0,nt
CC1CCCCN1C(=O)CN1C(=O)CN(C)C(=O)c2ccccc21 (centres undefined),1.4,nt,nt,nt,nt,1.4,-12,-31,-8,3%
CCC(=O)c1cn(/C(=C\C(=O)OC(C)(C)C)CCC(OC)OC)cc1CC,0.1,-5.5,2,-4,4.0,2.5,-7,4,-1,nt
COc1ccc2c(CC(=O)NCCN3C(=O)S/C(=C\c4cccnc4)C3=O)coc2c1,1.7,3.1,-5,-8,5.0,-1.1,-6,-1,-10,13%
CC1=C(C(=O)Nc2ccc(Br)cc2)C(c2ccco2)NC(=O)N1 (centres undefined),0.7,2.4,-6,-2,-1.8,-2.1,-1,-5,-1,4%
C=CCNC(=O)N1CCC(CO)(Cc2ccc(Cl)cc2)CC1,0.2,-0.2,-1,-3,-1.5,2.3,4,0,-10,-6%
O=C(Cc1ccc(Br)cc1)Nc1cccc(Cl)c1,0.2,-3.2,-11,-11,-0.6,3.5,21,-4,nt,nt
CSCCC(NS(=O)(=O)c1ccc2ccccc2c1)C(=O)O (centres undefined),1.4,nt,nt,nt,nt,-2.4,-7,-1,-3,-3%
COc1ccc(NC(=O)c2cc(S(=O)(=O)N3CCOCC3)ccc2C)cc1S(=O)(=O)N1CCOCC1,-0.3,-0.6,1,-3,-2.5,nt,nt,nt,-3,2%
CC(=O)NS(=O)(=O)c1ccc(NC(=O)/C=C/c2ccco2)cc1,0.1,-6.8,16,2,18,1.1,-15,-24,-6,-6%
COc1cc(C(=O)Nc2sc3c(c2C(=O)NCc2ccco2)CCCC3)cc(OC)c1OC,-0.6,nt,nt,nt,nt,2.3,42,-1,8,-41%
Cc1nc(-c2noc(-c3ccccc3Cl)n2)c(C(F)(F)F)o1,-8.9,-4.3,1,2,-2.5,1.0,-4,38,4,69%
COc1cc(C(=O)Nn2c(CC(C)C)nc3ccccc3c2=O)cc(OC)c1OC,1.9,-2.4,14,4,0.6,1.0,10,2,nt,nt
CCC(C)(C)n1nnnc1C(C(C)C)N(CCN1CCOCC1)Cc1cc2cccc(C)c2[nH]c1=O (centres undefined),0.8,nt,nt,nt,nt,-0.4,18,-1,-7,7%
Nc1nc(-c2ccccn2)nc(N)c1Cc1ccc(Cl)cc1Cl,-0.1,-1.1,-59,-80,-22,?,73*,24,96*,-5%
CC(=O)Oc1ccc2c3c(c(=O)oc2c1)CCCC3,-1.3,-2.0,-3,-13,-2.1,5.6,1,-2,nt,nt
O=C(c1ccc(Br)o1)N1CCN(c2ccc3nnc(-c4ccc(F)cc4)n3n2)CC1,-0.1,-0.9,5,5,2.4,3.7,30,4,7,-9%
O=C(Cc1ccccc1)Nn1c(O)c(/C=C2\C=Nc3ccccc32)sc1=S,0.3,nt,nt,nt,nt,-45,-6,-3,-4,9%
CC12CCC(C(=O)NCCCn3ccnc3)(OC1=O)C2(C)C (centres undefined),0.6,nt,nt,nt,nt,?,-13,0,nt,-2%
NC(N)=Nc1nc2ccc(Br)cc2c(=O)[nH]1,-0.5,-1.3,20,12,-0.4,2.4,-11,-9,-4,-12%
OC1(c2cccs2)CN(c2ccc(Br)cc2)C2=[N+]1CCCS2 (centres undefined),0.1,2.2,-9,-6,12,6.0,7,-8,nt,20%
COc1ccc(CCNC(=O)c2cc3ccccn3n2)c(OC)c1OC,0.8,6.0,4,-4,2.4,-0.1,13,1,-10,-1%
COCCNc1ncnc2c1cnn2-c1ccc(Cl)cc1,-0.8,nt,nt,nt,nt,1.0,-21,14,-3,0%
O=S(=O)(NCC1CN(S(=O)(=O)c2c(F)cccc2F)C1)c1ccc2c(c1)OCCO2,-1.1,-0.7,10,2,-6.5,nt,nt,nt,12,nt
COC(=O)C1CCN(S(C)(=O)=O)CC1,0.9,nt,nt,nt,nt,-2.1,-1,-7,-3,32%
COc1ccc(C)cc1S(=O)(=O)N1CCC(C(=O)NCCC2=CCCCC2)CC1,1.0,nt,nt,nt,nt,3.9,3,1,0,7%
CCC1=Nc2cc(C(=O)NCc3ccco3)ccc2Sc2ccc(Cl)cc21,-0.3,nt,nt,nt,nt,-0.6,-79,7,3,24%
O=C(CCC1CCCCC1)NCc1cccs1,-0.7,nt,nt,nt,nt,1.3,-1,0,-1,32%
CCN(Cc1ccccc1)C(=O)COc1cc(=O)n(CC)c2ccccc12,0.0,nt,nt,nt,nt,-0.5,3,-20,1,7%
O=C(c1cc(Cl)ccc1OCc1ccccc1)N1CCOCC1,0.3,-7.2,7,7,-1.0,0.9,7,11,-4,nt
O=C(O)c1cc(/C=C/c2ccc(N3CCOCC3)cc2)nc2ccccc12,-10.0,1.9,-25*,-15*,-2.5*,nt,nt,14,35,-2%
Cc1cc(CNC(=O)C2(C(F)(F)F)C/C(=C\Cc3ccccc3)CCCO2)nn1C (centres undefined),0.7,-7.8,-2,-2,-0.8,-4.1,1,-1,0,nt
Brc1ccc(-c2noc3c2-c2nc(C4CCCCC4)sc2CC3)cc1,0.6,nt,nt,nt,nt,?,-2,5,-3,nt
NC(=O)c1cc2ccc(O)cc2oc1=NCc1ccccc1,nt,7.7,-16,-12,8.6,181*,-2,1,nt,19%
CC(=O)N1CCCc2cc(S(=O)(=O)N3CCCC(C(=O)Nc4ccc(C)cc4C)C3)ccc21 (centres undefined),-0.2,0.8,2,6,-1.8,0.5,2,-14,-9,3%
Cc1[nH]c2ccc(F)cc2c1CCN(Cc1ccncc1)C(=S)Nc1ccc(F)cc1,-0.1,7.8,-10,-26,-1.9,2.6,49,-5,nt,-1%
Cc1ccc(OCC(O)CN2CCN(CC(O)COC(C)C)CC2)c(C(C)(C)C)c1 (centres undefined),1.1,nt,nt,nt,nt,-1.3,25,-27,2,3%
CCCc1[nH]n(-c2ccc(F)cc2)c(=O)c1C=Nc1ccc(C)cc1,-1.2,-4.6,9,2,-3.1,-3.8,12,0,2,-7%
Cc1ccccc1CC(=O)Nc1cccc(S(=O)(=O)N2CCCC2)c1,-0.6,-0.5,-1,-12,1.3,nt,nt,nt,-5,-2%
Cc1ccc(C(=O)N/C(=C\c2ccc(-c3ccc(Br)cc3)o2)C(=O)NC2CCS(=O)(=O)C2)cc1 (centres undefined),0.3,1.7,nt,nt,nt,-0.4,-1,-3,4,9%
Cc1nc(C)n(CC(=O)c2ccc(Cl)cc2Cl)n1,0.4,1.7,-11,11,0.0,0.1,9,-4,-8,nt
Cc1cccc(N2CCN(S(=O)(=O)c3ccc4[nH]c(=O)c(=O)[nH]c4c3)CC2C)c1 (centres undefined),0.7,nt,nt,nt,nt,-5.0,-18,8,-2,-2%
O=C(CN1C(=O)C2CC=CCC2C1=O)Nc1ccc(S(=O)(=O)Nc2ncccn2)cc1 (centres undefined),0.6,0.0,10,12,5.2,-3.0,-5,3,-3,14%
CCOC(=O)N1CCN(c2nnc(-c3ccc(C)cc3)c3ccccc23)CC1,1.3,5.9,-11,-12,-2.9,-1.6,35,-6,10,nt
CCCc1nnc(SCC(=O)Nc2ccc3c(c2)OCCO3)n1CCOC,0.2,3.1,1,9,-2.3,-3.0,1,-6,-2,nt
N/C(=N\OC(=O)c1cc(-c2ccccc2)nc2ccccc12)c1ccccn1,1.1,6.2,16,9,-0.2,-0.9,-8,0,10,0%
O=C(COC(=O)c1ccc(O)cc1)NCc1ccc2c(c1)OCO2,-0.6,-1.6,-11,-5,0.6,0.6,-7,9,-6,1%
CNC(=O)/C(C#N)=c1\s/c(=C/C(=O)OC)c(=O)n1-c1ccccc1,-1.1,nt,nt,nt,nt,3.5,-12,7,-10,-1%
CCOC(=O)c1sc(NC(=O)CN2C(=O)NC3(CC(C)CC(C)(C)C3)C2=O)c(C(=O)OCC)c1C (centres undefined),0.0,2.4,4,-1,-4.0,1.9,51,12,13,nt
CC(C)(C)OC(=O)C[C@H]1C/C=C\C[C@H](CC(=O)N(CCO)Cc2ccccc2)C(=O)NCCOC1=O,-0.2,-1.4,7,1,-8.6,nt,nt,nt,-2,nt
O=C(O)CCCn1cc(NC(=O)COc2ccc(F)cc2F)cn1,0.8,-1.1,5,7,-0.8,-4.2,-7,-8,-5,-3%
CCN(CC)S(=O)(=O)c1ccc(N2CCOCC2)c(NC(=O)CC23CC4CC(CC(Br)(C4)C2)C3)c1,-0.5,nt,nt,nt,nt,3.6,14,-2,1,nt
CN1c2ccccc2C(O)=C(C(=O)Nc2ccccc2)S1(=O)=O,-1.6,nt,nt,nt,nt,-3.2,11,-4,nt,3%
Cc1cc(N2CCCCCC2)n2nc(C)c(-c3ccccc3)c2n1,0.5,-4.5,13,3,3.4,4.5,4,9,31,-7%

# More entries follow:
SMILES,Bfl-1 A1 inh,AF4-AF9 inh,Ecoli rRNA inh,Ecoli rRNA inh OD600,Ecoli rRNA inh RFP,RanGTP-Impb inh,T cruzi repl,Calb FLC,Beta apoptosis,Vif TR-FRET
Cc1ccc(NC(=O)CN2C(=O)COc3ccc(S(=O)(=O)N4CCCC4)cc32)c(C)c1,-0.1,0.7,9,9,1.5,-4.2,-12,-1,-1,nt
O=c1nc(Nc2ccc([N+](=O)[O-])cc2)[nH]c(=O)[nH]1,-0.1,-0.5,16,4,2.1,-3.7,-4,0,-2,1%
CCOc1ccc2nc(N3CCCN(C(=O)Nc4ccccc4C)CC3)c(C#N)cc2c1,-0.4,nt,nt,nt,nt,119*,32,-7,-4,3%
Cc1ccc(SCCNC(=O)C(CO)(CO)CO)cc1,1.2,-37,4,-5,7.1,3.7,0,28,-4,1%

# Source: PubChem BioAssay (several laboratories)
